Biofilm kill mix: clotrimazole potentiators killing C. albicans biofilm, primary screen, 4-compound mixtures; inhibition, % at 7.6 µM; AID 1242, 2008; C. albicans biofilm persisters + clotrimazole, fluorescence viability; primary screen in compound mixtures of four per well; hit rate 0.02% among 120,000;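 active = inhibition above 30.3% in the primary screen of four-compound pools, then above 30% when the compound was retested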;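 note: compounds exposed to preformed 24 h biofilms for 48 h; the number belongs to the whole pool; some results filed as inactive read as strong as hits; inactives centre near 12; 0% = biofilm with clotrimazole alone and 100% = kill control; retested singly at about 60 µM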
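Test system: C. albicans CAF4-2 wild-type biofilms; buffer or medium: RPMI/MOPS medium, pH 7.0; schedule: 24 h biofilm formation, then 48 h compound exposure, 37 °C; detection: Alamar Blue fluorescence; measure: percent inhibition of biofilm viability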
Starred values were filed as active, the others as inactive.

Start of the data: the first 2 compounds, to show the layout:
SMILES	Biofilm kill mix
C/C(CC(=O)Nc1ccc2c(c1)OCCO2)=N\NC(=O)c1ccccn1	7.1
O=C(Nc1ccccc1C(=O)N/N=C/c1ccco1)c1ccc(Cl)cc1	22.6

The list itself (from the top)
SMILES	Biofilm kill mix
C/C(CC(=O)Nc1ccc2c(c1)OCCO2)=N\NC(=O)c1ccccn1	7.1
O=C(Nc1ccccc1C(=O)N/N=C/c1ccco1)c1ccc(Cl)cc1	22.6
COc1ccc(CSc2nc(C)cc(C)c2S(C)(=O)=O)cc1	6.2
Cc1onc(-c2ccccc2)c1CNS(=O)(=O)c1ccccc1[N+](=O)[O-]	4.2
O=[N+]([O-])c1cc(S(=O)(=O)Nc2cccc(Cl)c2)ccc1N/N=C/c1ccc(N2CCOCC2)cc1	15.7
CCOC(=O)C1=C(COc2ccc(C)cc2)NC(=O)NC1c1cc(C)ccc1C (centres undefined)	21.8
O=C1C(Cc2ccc(F)cc2)SC(=Nc2ccccc2)N1c1ccccc1 (centres undefined)	10.8
Cc1ccc(C)c(Nc2ncnc(N)c2[N+](=O)[O-])c1	5.6
CCS(=O)(=O)c1ccc(O)c(NC(=O)CCCC(=O)O)c1	1.0
O=C(C1=C[C@@H](c2ccc(C(F)(F)F)cc2)C[C@@H](OCCCCO)O1)N1CCN(Cc2ccccc2)CC1	15.7
CCOc1cc(/C=C(\C#N)c2nc(-c3cccs3)c(NC(C)=O)s2)ccc1O	7.8
O=[N+]([O-])c1ccc(OCc2cccc(COc3ccc([N+](=O)[O-])cc3)n2)cc1	11.7
COc1ccc(C2=NOC(CNC(=O)c3ccccc3Br)C2)c(OC)c1 (centres undefined)	28.1
S=C(NCc1ccccc1)Nc1ccc(Cl)cc1	29.3
CCn1c(NC(=O)c2ccccc2F)c(-c2cccs2)c(=O)c2ccccc21	8.3
O=C1C=C(c2ccccc2)C[C@H](c2cccs2)[C@H]1n1nnc([N+](=O)[O-])n1	8.7
Nc1ccc2nc(SCc3cccc(F)c3)sc2c1	16.9
Cc1cc[n+](CC(=O)c2ccc(NC(=O)c3ccccc3)cc2)c2ccccc12	6.1
COc1cccc(/C=N/NC(=O)c2oc3nc(-c4ccccc4)cc(-c4ccco4)c3c2N)c1	20.3
Cc1c(Cl)cccc1NC(=S)N1CCN(C(=O)C2CCCO2)CC1 (centres undefined)	15.8
CC(C)CN1C(=O)c2ccccc2C1(O)Cc1ccccc1 (centres undefined)	15.8
COc1ccc(Br)cc1CN(C)C(C)C(=O)Nc1cc([N+](=O)[O-])ccc1OC (centres undefined)	6.2
CC(C)(C)NC(=O)CSc1nc2ccc(NC(=O)CSc3nnc(N)s3)cc2s1	10.7
CC(C)(C)N(Cc1ccccc1)C(=O)c1ccc(Br)o1	-9.1
O=C(COc1ccc(Br)cc1Cl)NC(=S)N1CCc2ccccc21	6.8
COc1ccc(CCNC(=O)C2CC3Cn4c(nc5cc6ccccc6cc54)C3N2C)cc1 (centres undefined)	17.1
CN1CCN(c2ccc(-c3ccnn3C(=O)Nc3cccc(C(F)(F)F)c3)cc2)CC1	11.7
COc1ccccc1NC(=O)/C=C1\SCC(=O)N1C	18.1
NC(=O)CC[C@@H]1NC(=O)[C@@H]2CCCN2C(=O)c2cc([N+](=O)[O-])cc(I)c2NCCCC[C@@H](C(=O)NC(CC(=O)O)C(N)=O)NC1=O (some centres undefined)	18.4
CC1(C)CC(=O)C2=C(C1)OC1=C(C(=O)CC(C)(C)C1)C2c1ccc(O)c([N+](=O)[O-])c1	8.7
COc1ccc(C(=O)N2CCN(Cc3ccc4c(c3)OCO4)CC2)cc1[N+](=O)[O-]	18.6
Cc1ccc(-c2csc(-c3cc(C)on3)n2)cc1	17.0
CCn1c(SCc2nc3scc(-c4ccccc4)c3c(=O)[nH]2)nnc1-c1cccs1	-2.2
CCCOc1ccc(/C(O)=C2/C(=O)C(=O)N(CCCn3ccnc3)C2c2cccs2)cc1 (centres undefined)	-0.5
Cc1ccc(NC(=O)COC(=O)Cc2csc(-c3cccc(F)c3)n2)cc1C	16.8
CN(Cc1ccccc1)S(=O)(=O)c1cn(C)cn1	14.5
Clc1ccc(Nc2ccc(NCc3ccccc3)nn2)cc1	14.9
COc1ccc(CC(=O)NNC(=O)COc2ccc3ccccc3c2)cc1	19.4
O=C(c1cccs1)N1CCN=C1SCc1ccc(Cl)cc1	19.4
CN(C(=O)COC(=O)/C=C/c1ccccc1[N+](=O)[O-])c1ccccc1	3.3
O=C(NCc1ccccc1Cl)C1CCC(CNc2nc(=S)[nH]c3ccccc23)CC1 (centres undefined)	0.5
CCOC(=O)c1c(C)[nH]c(C(=O)OCC(=O)NC(C)(C)C)c1C	-7.6
CCCCCc1c2c(cc(O)c1C(=O)O)OC(=O)c1c(cc(OC)cc1C(=O)CCCC)O2	15.8
COc1ccccc1CNC(=O)C1(c2ccc(Cl)cc2)CC1	1.4
Cc1c(NC(=O)c2ccc(-c3cccc([N+](=O)[O-])c3)o2)c(=O)n(-c2ccccc2)n1C	15.0
Cn1c(C(=O)NC2CC2)cc(=O)n(C)c1=O	11.5
OCCCNC(=S)Nc1ccc(Oc2ccccc2)cc1	17.5
Cc1ccc(C(=O)N(CC#N)CC#N)cc1C	1.2
N/C(=N\NC(=O)c1cccs1)c1cc2ccccc2oc1=O	19.3
Cc1ccc(S(=O)(=O)c2cn(Cc3ccc(F)cc3)c3cc4c(cc3c2=O)OCO4)cc1	-8.9
(more compounds)
SMILES	Biofilm kill mix
CCc1ccc(CN2CCN(C(=O)c3cccc(OC)c3OC)CC2)cc1	10.1
CN(C(=O)COC(=O)c1ccc2c(=O)n3c(nc2c1)CCC3)c1ccccc1	12.7
CN(CC(=O)Nc1ccc(F)c(F)c1F)c1ncnc2sccc12	0.1
CNC(=O)OCCSCCS(=O)(=O)c1ccc(Cl)cc1	11.9
COC(=O)C1=C(C)N(C)C(=O)NC1c1ccc(O)c(Cl)c1 (centres undefined)	13.9
CCN(CC)CCNC(=O)c1ccc(NC(=O)c2c(F)cccc2Cl)cc1	19.5
Cc1ccc(Cn2cc(SCC(N)=O)c3ccccc32)cc1	10.5
CC(C)NS(=O)(=O)c1ccc(CCC(=O)NCc2ccncc2)cc1	3.4
COc1ccc(-c2ccc(/C=N/NC(=O)Cc3nnc(N)s3)o2)cc1Cl	15.4
CCOc1ccc(C(=O)NCC2CCCO2)cc1OCC (centres undefined)	4.4
CC(C)C1Cc2nc(Cl)c(C#N)cc2CO1 (centres undefined)	8.5
O=C(Oc1ccc(-c2csnn2)cc1)c1cccs1	5.1
S=C(NCCCN1CCOCC1)Nc1ccc(Cl)cc1	9.4
O=C(Oc1ccc([N+](=O)[O-])cc1)c1cccnc1	14.5
O=C(Nc1ccc2c(c1)Cc1ccccc1-2)c1ccncc1	8.5
CC1(C)C2CCC1(CS(=O)(=O)Nc1ccc(S(=O)(=O)NC3CCCCC3)cc1)C(=O)C2 (centres undefined)	2.9
CCC(=O)Nc1nnc(SCC(=O)N2c3ccccc3CC2C)s1 (centres undefined)	12.0
CC(=O)NNC(=O)CN1C(=O)/C(=C/c2ccccc2)SC1=S	4.1
Cc1ccc(NS(=O)(=O)c2cccc(C(=O)Nc3c(C)n(C)n(-c4ccccc4)c3=O)c2)cc1	28.7
Cc1ccc(S(=O)(=O)N2CCCCC2)cc1NC(=O)CSc1ncnc2ccccc12	6.1
COc1cc(/C=C(/C#N)C(=O)c2c(C)[nH]c3ccccc23)ccc1OCC#N	8.6
Cc1nnc(SCC(=O)Nc2nccs2)n(N)c1=O	12.5
Cc1cc(C)cc(NC(=O)c2ccc3nc[nH]c3c2)c1	5.3
CC1=NNC(=O)/C1=C\c1cn(-c2ccccc2)nc1-c1ccc(F)cc1	9.2
c1ccc(-c2csc3ncnc(NCC4COc5ccccc5O4)c23)cc1 (centres undefined)	7.6
O=C(NCCc1ccccc1)C1CCN(S(=O)(=O)c2ccc(Br)s2)CC1	17.4
CC(C)(C)NC(=O)C1CCC(CNc2c(N3CCCCC3)c(=O)c2=O)CC1 (centres undefined)	19.8
CCOC(=O)N1CCC(n2c(SCC(=O)NCCc3ccc(S(N)(=O)=O)cc3)nc3ccccc3c2=O)CC1	1.2
COc1ccc(Oc2cnn(-c3ccccc3)c(=O)c2Br)cc1	12.5
COCCNC(=O)C(=O)NCCN1CCNCC1	8.1
O=C(Nc1ccc(F)cc1F)c1csc(-c2ccncc2)n1	9.8
CC(=O)Nc1ccc(NC(=O)CSc2ccc(C(F)(F)F)cc2[N+](=O)[O-])cc1	2.3
COc1cc([N+](=O)[O-])ccc1NC(=O)CC(C)C	22.6
CCc1cc(C(=O)N2CCc3c([nH]c4ccccc34)C2c2ccc(OC)cc2F)no1 (centres undefined)	12.6
COc1cc(/C=N/NC(=O)c2cc(-c3ccccc3)sc2N)cc(OC)c1OC	17.6
CC(=O)Nc1ccc(S(=O)(=O)N2CCN(Cc3ccccc3[N+](=O)[O-])CC2)cc1	15.2
COc1ccc(OC)c(C(=O)c2coc3ccc(OC(C)=O)cc23)c1	12.1
O=C(Nc1ccc(Br)cn1)c1cccc(-c2cc3ccccc3oc2=O)c1	13.4
Cc1ccc(-n2cc(CN(C)Cc3nccn3C)c(-c3ccc(F)cc3)n2)cc1	18.7
Cc1cc(Br)cn2cc(C(=O)O)nc12	13.0
COc1ccc(OCC(=O)Nn2c(-c3cccc(OC)c3)nc3ccccc3c2=O)cc1	9.3
O=c1cc(N2CCc3ccccc32)[nH]c(=O)n1-c1ccccc1	18.2
COc1ccc(OC)c(NC(=O)c2ccc(CSc3ncccn3)cc2)c1	21.1
C/C(=N\NC(=O)COc1ccc(C#N)cc1)c1ccccc1OC(F)F	-0.4
O=C(COC(=O)c1ccc(Cl)c(S(=O)(=O)N2CCCCCC2)c1)Nc1ccccc1	10.6
O=C(Nc1ccc2c(c1)OCCO2)c1cccnc1Oc1ccccc1	24.1
CC(NS(=O)(=O)c1ccc(Cl)cc1)C(=O)NCCC1=CCCCC1 (centres undefined)	12.2
S=c1c2c(nc3nc[nH]n13)CCC2	14.8
Cn1nc(C(F)(F)F)c(-c2ccccc2)c1NC(=O)CCC(=O)O	15.7
COc1cccc(C(=O)N(Cc2cccs2)C2CCS(=O)(=O)C2)c1 (centres undefined)	25.7

In a second layout: 2 of the compounds above.
structure,Biofilm kill mix
CC(NS(=O)(=O)c1ccc(Cl)cc1)C(=O)NCCC1=CCCCC1 (centres undefined),12.2
S=c1c2c(nc3nc[nH]n13)CCC2,14.8

Further compounds follow:
SMILES	Biofilm kill mix
O=C(NN=C1CCCCCCCCCCC1)c1ccncc1	1.3
Cc1cc(Cl)ccc1OCC(=O)Nc1ccccc1NS(=O)(=O)c1cccs1	24.4
CN(/N=C/c1ccc(Cl)cc1Cl)c1ncc(Cl)cc1C(F)(F)F	9.1
CC(=O)Nc1ccc(C(=O)OCC(=O)N(C)C2CCCCC2)cc1	13.5
O=C(c1ccccc1Oc1ccc(C(F)(F)F)cc1[N+](=O)[O-])N1CCOCC1	10.1
COc1cccc(N(C(=O)c2nc3nccc(C)n3n2)c2nc3ccccc3s2)c1	6.4
Cn1ncc([N+](=O)[O-])c1C(=O)NCc1ccccc1	14.0
CC(=O)Nc1ccc(NC(=O)c2ccc([N+](=O)[O-])cc2Cl)cc1	-2.9
Cc1ccc(-c2c(C)n([O-])c3c([n+]2=O)CCC3)cc1	11.6
COc1ccc(Cc2nc3ccccc3n2C)cc1	-8.4
Cc1ccc(N(C(=O)c2ccc(S(=O)(=O)N3CCOCC3)cc2)C2C=CS(=O)(=O)C2)cc1C (centres undefined)	16.2
CC(C)CC(=O)N/N=C/c1c(N)n(C)c(=O)n(C)c1=O	2.1
CCOC(=O)C1CCN(C(=O)COC(=O)c2cccc(F)c2)CC1	14.8
Nc1nnc(-c2cccnc2)s1	11.8
CC(NCc1cccs1)C(=O)NC1CCCCC1 (centres undefined)	-0.4
C(=N\Nc1nc(Nc2ccccc2)nc(Nc2ccccc2)n1)/c1cccnc1	-11.4
COc1ccc(C2=NN(c3ccccc3)C(c3cn(CCC(=O)O)nc3-c3ccccc3)C2)cc1 (centres undefined)	17.4
O=C(NCC1COc2ccccc2O1)c1cc2ccccc2o1 (centres undefined)	18.3
C/C(CC(=O)Nc1cccc(C(F)(F)F)c1)=N\NC(=O)C1CCCCC1	43.5
COc1ccc(/C=C/C(=O)C2(O)CCCCC2)cc1OC	10.8
CCC(=O)N(C)CCc1cc2c(c(OC)c1/C=N/NC(=O)c1ccccc1O)OCO2	8.7
Cc1ccc(C)c(OCC(=O)O/N=C(\N)c2cccnc2)c1	-1.1
CN(C)/C=C/C(=O)c1cnc(-c2ccccc2)s1	15.3
Cc1nn2c(NCCCn3ccnc3)cc(C(C)C)nc2c1-c1ccccc1	-3.3
COc1ccc(C2=[N+](C)CCn3cccc32)c(OC)c1	12.1
c1cc2c(cc1C1CCCCC1)c1c3n2CCCNC3CCC1 (centres undefined)	8.5
COc1ccc2c(c1)C(c1cccs1)=NNC(c1ccncc1)=N2	12.0
CN(C1CCCC1)C1CCN(C(=O)CNC(=O)/C=C/c2cccc(C(F)(F)F)c2)CC1	10.1
Cc1ccccc1C1=NC(C(F)(F)F)(C(F)(F)F)c2c(n(-c3ccc(F)cc3)c(=O)[nH]c2=O)N1	0.3
COc1ccc(C(=O)COC(=O)C(CC(C)C)N2C(=O)c3ccccc3C2=O)cc1 (centres undefined)	6.6
COc1ccccc1N1CN(Cc2ccccc2)CNC1=S	10.1
Cn1cc(CN2CCC(C(O)c3cccs3)CC2)c(-c2cccc(Cl)c2)n1 (centres undefined)	20.1

Among those listed so far, 4 contain a tert-butyl group:
SMILES	Biofilm kill mix
CC(C)(C)NC(=O)CSc1nc2ccc(NC(=O)CSc3nnc(N)s3)cc2s1	10.7
CC(C)(C)N(Cc1ccccc1)C(=O)c1ccc(Br)o1	-9.1
CCOC(=O)c1c(C)[nH]c(C(=O)OCC(=O)NC(C)(C)C)c1C	-7.6
CC(C)(C)NC(=O)C1CCC(CNc2c(N3CCCCC3)c(=O)c2=O)CC1 (centres undefined)	19.8

This is a subset. The share of hits here may be higher or lower than overall.
